RE007 growth inh – less growth of the S. pombe RE007 Vpr strain. Potency, µM (top dose mostly 92.2 µM), for inactives: at the top dose activity change, negative = less growth. S. pombe RE007 Vpr strain, BacTiter-Glo ATP luminescence, 24 h; control for the full effect not named in the record. actives 0.21% (n = 360,000); active = well fitted falling curve with a large enough effect; inconclusive = small, poorly fitted or top-dose-only effect; inactive = no such curve, though single readings can be large or run the other way;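 also: % is scaled to controls: 0 for no effect and ±100 for the full control effect; nearly all actives have a fitted effect of over 50% in size; the assay follows cell death caused by Vpr and the record does not say whether a fall means rescue or toxicity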
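Fission yeast RE007 carrying one integrated HIV-1 vpr copy, seeded at OD 0.01 in PMG+AL medium with 23 nL pinned compound. Grown 24 h at 30 degrees; viability read by BacTiter-Glo luminescence after 5 min.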
Cruzain Triton – blocks cruzain activity in presence of Triton detergent; P25779; purified cruzain, Z-FR-AMC fluorescence, 0.01% Triton; Potency, µM, without a hit: max response, negative = inhibition, most hits filed as inhibitors; actives 0.43% (n = 200,000); active = well fitted curve in the direction sought with a large enough effect; inconclusive = small, poorly fitted or top-dose-only effect, or another doubt; inactive = no such curve, though single readings can be large; an effect the other way counts as inactive or inconclusive;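 also: plate controls were neutral wells for no effect and buffer without enzyme for full effect; nearly all actives have a fitted effect of over 40% in size; top concentration of the series not given in the record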
Target sequence (P25779 123-467 limits assumed): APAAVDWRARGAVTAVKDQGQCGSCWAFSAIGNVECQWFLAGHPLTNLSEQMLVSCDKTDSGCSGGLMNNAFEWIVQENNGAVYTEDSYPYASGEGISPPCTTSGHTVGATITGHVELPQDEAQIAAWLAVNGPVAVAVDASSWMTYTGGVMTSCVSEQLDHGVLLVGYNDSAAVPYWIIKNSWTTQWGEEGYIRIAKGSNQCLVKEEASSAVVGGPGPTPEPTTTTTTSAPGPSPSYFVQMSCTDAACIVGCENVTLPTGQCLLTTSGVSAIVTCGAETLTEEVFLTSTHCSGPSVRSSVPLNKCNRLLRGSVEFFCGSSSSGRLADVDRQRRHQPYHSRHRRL
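Detergent-containing run (0.01% Triton X-100) in acetate buffer pH 5.5 with 5 mM DTT: enzyme at 1.5 nM final, 15 min compound preincubation at room temperature, then 2 uM Z-FR-AMC substrate. Activity taken as 60 s fluorescence increase at 360/450 nm.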
LASV entry inh – Lassa virus entry inhibition; Lassa virus pseudotype entry inhibition, cell reporter; control for the full effect not named in the record; Potency, µM (highest dose often 37.9 µM), without a hit: top-dose activity change, negative = inhibition, actives largely listed as inhibitors; actives 1.2% (n = 300,000); AID 540256; active means well fitted inhibition curve with a large enough effect; inconclusive means small, poorly fitted or top-dose-only effect, or effect the other way; inactive means flat fitted curve, though single readings scatter; tested in HEK293 cells; also: % is scaled to controls: 0 for no effect and ±100 for the full control effect; nearly all actives have a fitted effect of over 50% in size; luciferase read-out
NS1 inh – blocks influenza NS1 protein function; S. cerevisiae slowed by influenza A NS1, growth recovery by OD600; Potency, µM (highest dose often 46.1 µM), for the others: at the top dose activity, positive = more growth; actives 0.4% (n = 270,000); also: actives are rising curves; nearly all actives have a fitted effect of over 50% in size
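Growth recovery, yeast-based: influenza A NS1 expressed in S. cerevisiae causes slow growth, and suppressors are detected by OD600. The parent strain without NS1 is used as positive control.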
MARV entry inh – blocks Marburg virus binding to or entry into cells. Marburg virus pseudotyped entry inhibition, cell reporter; control for the full effect not named in the record; about a third of the inactives were read at about 46 µM. Potency, µM (doses to about 37.8 µM), for the others: top-dose activity change, negative = inhibition, usual class: inhibitors. actives 1.8% (n = 300,000). AID 540276; active = well fitted inhibition curve with a large enough effect; inconclusive = small, poorly fitted or top-dose-only effect, or effect the other way; inactive = flat fitted curve, though single readings scatter; tested in HEK293 cells; about a fifth of its hits are not listed in these tables; also: % is scaled to controls: 0 for no effect and ±100 for the full control effect; luciferase read-out
SARS PLpro yeast – SARS-CoV PLP inhibition in yeast | Potency, µM (top dose mostly 32.9 µM), for the others: at the highest dose activity, positive = growth rescue | AID 485353 | actives 0.19% (n = 330,000) | S. cerevisiae expressing SARS-CoV PLpro, growth rescue; control for the full effect not named in the record; also: 0% is about no effect; nearly all actives have a fitted effect of over 55% in size; growth read by luminescence after 48 h
2A StopGo – FMDV 2A StopGo reporter, luciferase signal | human cells with a luciferase reporter of 2A StopGo recoding; control for the full effect not named in the record | Potency, µM (titrated, usually from 57.9 µM), inactives show at the highest dose signal change, negative = less light | AID 1159524 | actives 1.2% (n = 410,000); active = well fitted falling curve with a large enough effect; inconclusive = small, poorly fitted or top-dose-only effect; inactive = no such curve, though single readings can be large or run the other way; tested in HEK293T cells; also: % is scaled to controls: 0 for no effect and ±100 for the full control effect; nearly all actives have a fitted effect of over 45% in size; luciferase light after 4 h
Cruzain noTriton – cruzain (T. cruzi) inhibition without detergent. actives 2.3% (n = 200,000). purified cruzain, Z-FR-AMC fluorescence, no detergent. AID 1476. P25779. Potency, µM, inactives show max response, negative = inhibition, actives largely listed as inhibitors; active = well fitted curve in the direction sought with a large enough effect; inconclusive = small, poorly fitted or top-dose-only effect, or another doubt; inactive = no such curve, though single readings can be large; an effect the other way counts as inactive or inconclusive;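 also: plate controls were enzyme without inhibitor for no effect and buffer without enzyme for full effect; nearly all actives have a fitted effect of over 40% in size; top concentration of the series not given in the record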
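Detergent-free condition (0.00005% Triton X-100) in acetate buffer pH 5.5 with DTT. 1.5 nM enzyme and compound were pre-mixed 15 min, then 2 uM Z-FR-AMC substrate added; reaction progress from fluorescence change between first and third reads (60 s).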
Active calls of the source: *; ? = inconclusive; nt = not tested or not shown; & = joins results of further samples; [ ] = another dose, or the depositor's remark. Unless noted, calls follow the shape of the dose curve; as a rule, active means well fitted rising curve with a large enough effect; inconclusive means small, poorly fitted or top-dose-only effect; inactive means no such curve, though single readings can be large or run the other way. Potency is read from the fitted curve at half-maximal effect.

SMILES	RE007 growth inh	Cruzain Triton	LASV entry inh	NS1 inh	MARV entry inh	SARS PLpro yeast	2A StopGo	Cruzain noTriton
CCOc1ccc2oc(C(=O)N(Cc3nnc(-c4ccccc4Cl)o3)C3CC3)c(C)c2c1	-19.9%	nt	-29.7%	nt	29.9%	4.4%	-8.5%	nt
O=C(CCOc1ccccc1)N(Cc1cccnc1)c1nc2c(Cl)cccc2s1	nt	-4.7%	14.1%[46.1 µM]	nt	nt	nt	?	-10.8%
CN1CCN(CC(=O)Nc2ccc(S(=O)(=O)N(C)C)cc2)CC1	1.7%	nt	?	8.9%	-0.1%	-2.9%	-3.7%	nt
Nc1sc(-c2ccccc2)n[n+]1Cc1cccc2cccnc12	-8.1%	nt	nt	-32.2%	5.6%	-20.4%	-26.4%	nt
O=C(CN1C(=O)NC2(CCc3ccccc32)C1=O)c1ccc(Br)cc1 (stereo not drawn)	-15.6%	nt	-27.4%	nt	19.3%[46.1 µM]	5.5%	-17.8%	nt
COc1ccc(CCNC(=O)CCCOc2cc(=O)n(C)c3ccccc23)cc1OC	0.8%	nt	0.3%	nt	-12.0%[46.1 µM]	3.2%	8.3%	nt
Cc1ccc(NC(=O)c2cnc(N3CCCC3)nc2C)cc1F	nt	-4.8%	-3.7%[46.1 µM]	nt	nt	nt	-10.7%	-10.9%
CC(C(=O)c1ccccc1)[n+]1cccc(C(N)=O)c1 (stereo not drawn)	16.9%	nt	-8.8%	4.1%	5.4%[46.1 µM]	0.6%	-4.0%	nt
CCOC(=O)c1ccc(NC(=O)COc2ccc(S(=O)(=O)N3CCCC3)cc2)cc1	-0.8%	0.6%	-29.3%	9.7%	?	4.3%	nt	-11.6%
Cc1cc([N+](=O)[O-])c(N2CCC[C@@H]2C(=O)O)c([N+](=O)[O-])c1	1.2%	0.7%	2.6%	-5.9%	17.5%[46.1 µM]	4.2%	-1.0%	-5.9%
CC1(C(=O)N2CC3(CC(c4cccc([N+](=O)[O-])c4)=NO3)C[C@H]2C(=O)NCC(N)=O)CC1 (stereo partly drawn)	1.4%	0.6%	nt	0.0%	0.0%	-4.0%	-11.1%	-0.3%
CCOC(=O)c1ccc(NCCOC)c([N+](=O)[O-])c1	1.9%	nt	?	-2.9%	?	1.9%	5.8%	nt
CCOc1ccccc1N1CCN(C(=O)c2ccccc2)CC1	9.6%	-4.1%	11.0%	-6.6%	0.4%	-2.6%	-12.4%	?
CC(=O)NC1(C(F)(F)F)C(=O)Nc2c1c(=O)[nH]c(=O)n2Cc1ccco1 (stereo not drawn)	2.4%	2.1%	11.0%	2.3%	0.4%	nt	-14.9%	-4.9%
O=C(NCCc1ccccc1O)c1cc2c(cc1[N+](=O)[O-])OCO2	9.2%	nt	6.6%	nt	8.1%	nt	4.1%	nt
O=C(CSc1nnc(-c2cnccn2)n1Cc1ccco1)c1ccc2ccccc2c1	-4.7%	-6.3%	2.0%	-16.8%	-11.4%	-0.3%	-5.6%	?
O=C(Cn1c(=O)n(Cc2ccc3c(c2)OCO3)c(=O)c2oc3ccccc3c21)Nc1ccccc1	nt	-1.1%	3.2%[46.1 µM]	nt	nt	nt	32.1%[activator]	-1.7%
Cc1cccc(-n2nnnc2SCc2csc(-c3ccccc3)n2)c1	4.0%	-0.4%	-29.3%	-6.0%	-5.2%	11.2%	-10.3%	-3.2%
CCn1c(SCC(=O)Nc2nc(C)cs2)nnc1C(NC(=O)c1ccccc1Cl)C(C)C (stereo not drawn)	2.0%	0.1%	6.8%	1.3%	-13.8%&-13.8%	1.6%	-13.7%	2.6%
CCN(CC)S(=O)(=O)c1nnc(NC(=O)COc2ccccc2)s1	nt	-2.1%	-12.4%[46.1 µM]	nt	nt	nt	-6.6%	4.7%
CCCn1cc(SCC(=O)Nc2ccc3c(c2)OCO3)c2ccccc21	24.6%	-2.9%	nt	-10.0%	nt	-15.5%	-9.2%	-9.7%
NC(N)=N[C@@H](CCC(=O)O)C(=O)O	nt	5.7%	4.1%	-7.6%	8.0%&0.0%&0.0%	nt	nt	17.5%
CCN(CC)S(=O)(=O)c1ccc2c(c1)c(=O)c(C(=O)NCc1ccc3c(c1)OCO3)cn2C	nt	-3.3%	4.1%	0.4%	13.3%	-3.5%	nt	?
CCOc1ccccc1NC(=O)N1CCC(n2c(C)nc3cccnc32)CC1	nt	-1.3%	-10.6%[46.1 µM]	nt	nt	nt	-9.6%	-2.4%
Cc1ccc(NC(=S)NNC(=O)Nc2ccccc2)cc1	8.1%	nt	14.6%	2.7%	?	-0.2%	99.6%[activator]	nt
CN(C)c1ccc(C(=O)OCC(=O)c2ccc[nH]2)cc1	-3.1%	nt	-12.9%[46.1 µM]	nt	?	-8.8%	67.0%[activator]	nt
CCOC(=O)/C(=N/Nc1ccc(Br)cc1)N1CC(C)OC(C)C1 (stereo not drawn)	68.2%	nt	?	nt	?	nt	-8.2%	nt
O=C(c1cccs1)N1CCN(c2ccc([N+](=O)[O-])cc2F)CC1	-23.4%	nt	nt	-1.5%	nt	-1.3%	12.2%	nt
Nc1nnc(SCC(=O)N2CCN(Cc3ccccc3)CC2)s1	2.7%	4.8%	-1.3%	-1.2%	23.8%	1.4%	18.6%	7.7%
COCCCNC(=O)CSc1nc2c(sc3ccccc32)c(=O)n1CCc1ccc(OC)c(OC)c1	nt	2.5%	25.8%[46.1 µM]	nt	nt	nt	-16.7%	11.7%
COc1ccc(OC)c(/C=C/c2[nH]c(=O)[nH]c(=O)c2[N+](=O)[O-])c1	4.3%	nt	20.6%	11.6%	?	7.0%	?	nt
CCOc1ccc(CN(C)C(C)C(=O)Nc2ccc([N+](=O)[O-])cc2Cl)cc1OC (stereo not drawn)	5.1%	-4.1%	0.7%	-17.0%	?	24.2%	22.4µM*	-3.0%
Cc1ccc(NS(=O)(=O)c2cc(C(=O)N3CCN(C)CC3)ccc2C)cc1	0.3%	3.5%	-1.7%	-5.9%	-6.2%	2.6%	25.1%	2.6%
CCOc1c(N2CCCCC2)c(=O)c1=O	0.6%	0.4%	3.5%	-8.8%	0.0%	11.4%	-9.8%	0.6%
COc1ccc(N2CCN(C(=O)CNC(=O)c3ccc(C(C)(C)C)cc3)CC2)cc1	5.0%	0.3%	-11.8%	1.9%	-8.8%[46.1 µM]	1.0%	0.0%	-1.9%
S=c1[nH]nc(-c2cccc(Br)c2)o1	2.0%	-2.2%	-1.2%	-50.5%	19.7%	-23.9%	3.2%	?
COc1ccc(CCNC(=O)COc2cccc(-n3cnnn3)c2)cc1	4.3%	nt	24.6%	nt	-15.2%	1.2%	-18.0%	nt
Cc1cc(OC(C)C(=O)NC(Cc2c[nH]c3ccc(O)cc23)C(=O)O)c2c(C)cc(=O)oc2c1 (stereo not drawn)	1.9%	nt	nt	8.4%	nt	-9.8%	-14.9%	nt
O=C1C(Cc2c[nH]c3ccccc23)NC(=S)N1Cc1ccccc1 (stereo not drawn)	-2.7%	nt	-27.4%	6.3%	-11.3%[46.1 µM]	-2.0%	-27.9%	nt
CCn1cnc2cc(NC(=O)c3cccs3)ccc21	-18.1%	nt	?	-7.8%	?	-1.5%	22.3%	nt
COc1ccc(-n2nc([N+](=O)[O-])c(=NCCc3ccc(OC)c(OC)c3)n2O)cc1	31.5%	-6.2%	?	-12.6%	?	12.7%	?	-1.0%
O=C(NCc1cccnc1)/C(=C\c1ccc(-c2cccc(Cl)c2)o1)S(=O)(=O)c1ccccc1	-12.0%	-10.4%	?	-14.1%	?	?	17.8µM*	9.9%
CCOC(=O)CN1C(=O)CSc2ccccc21	1.9%	1.7%	-4.2%	1.3%	0.1%	12.6%	-5.7%	-7.1%
Cc1ccc2nc(SCC(=O)Nc3cc(C(F)(F)F)ccc3N3CCOCC3)[nH]c2c1	7.7%	-2.6%	?	6.0%	?	-1.8%	?	-7.3%
O=C(Cn1nnc(-c2ccccc2-n2cnnn2)n1)NCc1ccccc1	-5.3%	-1.1%	6.3%	-1.1%	11.4%	13.4%	nt	11.6%
CCCc1cc(=O)oc2c(C)c(OC(C)C(=O)NCc3ccccn3)ccc12 (stereo not drawn)	4.9%	nt	nt	3.9%	nt	3.5%	-28.1%	nt
N#CCCN(C(=S)Nc1ccc(S(=O)(=O)N2CCOCC2)cc1)c1ccccc1F	5.0%	nt	0.5%	nt	-8.4%	-1.4%	-8.7%	nt
COCCNC(=O)c1snc2ccc(Cl)cc12	2.6%	-5.7%	11.7%	-4.4%	7.6%	-1.4%	nt	-7.9%

Entries from the list above that contain a furan ring, fused or not:
SMILES	RE007 growth inh	Cruzain Triton	LASV entry inh	NS1 inh	MARV entry inh	SARS PLpro yeast	2A StopGo	Cruzain noTriton
CCOc1ccc2oc(C(=O)N(Cc3nnc(-c4ccccc4Cl)o3)C3CC3)c(C)c2c1	-19.9%	nt	-29.7%	nt	29.9%	4.4%	-8.5%	nt
CC(=O)NC1(C(F)(F)F)C(=O)Nc2c1c(=O)[nH]c(=O)n2Cc1ccco1 (stereo not drawn)	2.4%	2.1%	11.0%	2.3%	0.4%	nt	-14.9%	-4.9%
O=C(CSc1nnc(-c2cnccn2)n1Cc1ccco1)c1ccc2ccccc2c1	-4.7%	-6.3%	2.0%	-16.8%	-11.4%	-0.3%	-5.6%	?
O=C(Cn1c(=O)n(Cc2ccc3c(c2)OCO3)c(=O)c2oc3ccccc3c21)Nc1ccccc1	nt	-1.1%	3.2%[46.1 µM]	nt	nt	nt	32.1%[activator]	-1.7%
O=C(NCc1cccnc1)/C(=C\c1ccc(-c2cccc(Cl)c2)o1)S(=O)(=O)c1ccccc1	-12.0%	-10.4%	?	-14.1%	?	?	17.8µM*	9.9%
